AID504770 – growth inhibitors of E. coli YBA685 in a screen for V. cholerae RctB (chromosome II replication) inhibitors | 0.27% of 130,000 active | z-score (concentration not given with the values) | E. coli YBA685 rctB-dependent plasmid, OD600 growth, 3 h; active compounds read low | AID 504770;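 active = z-score under -2 on both plates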;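 also: wells of about 30 µL received 100 nL stock; score is relative to mean and SD of the test wells; the first replicate is given; strong numbers were not always called active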
CapD inh – blocks the Bacillus anthracis CapD enzyme | purified CapD enzyme, fluorescence intensity read-out; active compounds read low; some hits fall short of the stated cut | z-score (no concentration beside the values) | 0.23% of 140,000 active;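 active = z-score under -4 in either of two replicates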;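 also: stock transfer was 100 nL into about 40 µL; score is relative to mean and spread of the plate; one replicate is shown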
Starred values were filed as active, the others as inactive; / = no result given; & = joins results of further samples. Hits appear at their usual frequency; any-hit rate near 0.39%.

SMILES	AID504770	CapD inh
O=C(O)c1sccc1S(=O)(=O)Nc1ccccc1N1CCCCC1	-1.6	-0.96
Cc1ccc(-c2nnn(CC(=O)N3CCCC3c3ccc4c(c3)OCCCO4)n2)cc1 (configuration not stated)	0	/
Cc1ccc(CNC(=O)CN2CCOc3ccccc32)cc1	-1	-0.84
CCOCCOC(=O)C1=C(C)NC2=C(C(=O)CC(c3ccc(Cl)cc3)C2)C1c1cccc([N+](=O)[O-])c1 (configuration not stated)	/	-1.1
CN(C)c1ccc(-c2nc3ccccc3o2)cc1	-0.6	80
Cc1ccc(-n2c(-c3ccccc3)csc2=NC(=O)c2ccccc2)cc1	0.85	-0.65
CCOC(=O)c1cc(S(=O)(=O)NCC2CCCO2)cn1C (configuration not stated)	0.1	-2.7
Oc1c(Br)cc(Br)c2cccnc12	-0.35	0.27
Cc1cc(C)n2nc(Nc3ccccc3)cc2n1	0.45	7.6
CC1CCN(C(=O)CSC2=NCCS2)CC1	-0.85	-0.73
CN(C)/C=N/c1nc2ncc(-c3ccc(Cl)cc3)c(/N=C/N(C)C)n2n1	/	0.1
Cc1ccc(OCCSc2nc3ccccc3n2CC(O)CO)cc1 (configuration not stated)	/	-0.13
CN(C)c1ccc(/C=C(\C#N)C(=O)OCc2ncc(-c3ccccc3)o2)cc1	0.6	/
COc1ccc2cc(S(=O)(=O)c3ccccc3)c(=O)oc2c1	-0.85	91
COc1ccc(C2=NN(C(=O)CCC(=O)O)C(c3ccc(C)cc3)C2)cc1OC (configuration not stated)	/	44
CNC(=O)C1CCN(S(=O)(=O)c2ccc3c(c2)nc(C)n3C2CCCC2)CC1	0.55	0.09
Cc1ccccc1NC(=O)N1CC(C)CC(C)C1 (configuration not stated)	1.6	-0.81
CC1=CC(=C2C(=O)NC(=O)NC2=O)C=C(C(F)(F)F)N1Cc1ccco1	0.1	-0.3
CCc1nonc1NC(=O)c1ccc(C)cc1	0.35	-0.18
COc1cccc(-c2nc(CN3CCN(c4ccccc4OC)CC3)cs2)c1	-0.7	/
C[C@]12C=CC(=O)C=C1CCC1C2[C@@H](O)C[C@@]2(C)C1CC[C@]2(O)C(=O)CO (some centres not stated)	-0.25	25
CCc1ccc(Oc2coc3cc(O)ccc3c2=O)cc1	0.25	2.8
COC(=O)C1=CN(Cc2cccs2)C=C(C(=O)OC)C1c1cccc(OC)c1	-0.35	0.93
CC(C)CCC1CC(C)(C(C)O)OC1=O (configuration not stated)	2.4	/
COc1ccc(C2OCC3(CO)C(C)C=C(C)C2C3C)cc1 (configuration not stated)	/	-0.35

Some of the entries above, set out differently.
Every second line gives: AID504770 | CapD inh
- Cc1cc(C)n2nc(Nc3ccccc3)cc2n1
 : 0.45 | 7.6
- CC1CCN(C(=O)CSC2=NCCS2)CC1
 : -0.85 | -0.73
- CN(C)/C=N/c1nc2ncc(-c3ccc(Cl)cc3)c(/N=C/N(C)C)n2n1
 : / | 0.1
- Cc1ccc(OCCSc2nc3ccccc3n2CC(O)CO)cc1 (configuration not stated)
 : / | -0.13
- CN(C)c1ccc(/C=C(\C#N)C(=O)OCc2ncc(-c3ccccc3)o2)cc1
 : 0.6 | /
- COc1ccc2cc(S(=O)(=O)c3ccccc3)c(=O)oc2c1
 : -0.85 | 91
- COc1ccc(C2=NN(C(=O)CCC(=O)O)C(c3ccc(C)cc3)C2)cc1OC (configuration not stated)
 : / | 44
- CNC(=O)C1CCN(S(=O)(=O)c2ccc3c(c2)nc(C)n3C2CCCC2)CC1
 : 0.55 | 0.09
- Cc1ccccc1NC(=O)N1CC(C)CC(C)C1 (configuration not stated)
 : 1.6 | -0.81
- CC1=CC(=C2C(=O)NC(=O)NC2=O)C=C(C(F)(F)F)N1Cc1ccco1
 : 0.1 | -0.3
- CCc1nonc1NC(=O)c1ccc(C)cc1
 : 0.35 | -0.18
- COc1cccc(-c2nc(CN3CCN(c4ccccc4OC)CC3)cs2)c1
 : -0.7 | /
- C[C@]12C=CC(=O)C=C1CCC1C2[C@@H](O)C[C@@]2(C)C1CC[C@]2(O)C(=O)CO (some centres not stated)
 : -0.25 | 25
- CCc1ccc(Oc2coc3cc(O)ccc3c2=O)cc1
 : 0.25 | 2.8
- COC(=O)C1=CN(Cc2cccs2)C=C(C(=O)OC)C1c1cccc(OC)c1
 : -0.35 | 0.93
- CC(C)CCC1CC(C)(C(C)O)OC1=O (configuration not stated)
 : 2.4 | /
- COc1ccc(C2OCC3(CO)C(C)C=C(C)C2C3C)cc1 (configuration not stated)
 : / | -0.35

Next part
SMILES	AID504770	CapD inh
Cn1cccc1C(=O)OCC(=O)c1c[nH]c2ccccc12	-0.05	/
O=C(NCCc1ccc(S(=O)(=O)N2CCCCC2)cc1)c1ccc2c(c1)C(=O)c1ccccc1C2=O	/	-0.16
COc1ccc(-c2nc(COc3ccccc3Cl)nc(SC)c2C#N)cc1	1.4	15
CC(C)NC(=S)N/N=C/c1ccccc1C(=O)O	0.95	/
Cc1cccc(-n2c(CCN3C(=O)c4ccccc4C3=O)nc3ccccc3c2=O)n1	-0.55	/
CCOC(=O)N1CCC(=NNC(=S)Nc2c(C)cccc2C)CC1	0.15	/
CC(C)n1cc(-c2ccc(S(C)(=O)=O)cc2NC(=O)c2cccc(C(F)(F)F)c2)cn1	/	0.035
COc1ccc(-c2oc3ncn4nc(-c5ccccc5)nc4c3c2-c2ccc(OC)cc2)cc1	0.45	10
O=C(CSCc1cnn(-c2ccccc2)c1-n1cccc1)NCc1ccccn1	0.65	-0.9
CC1(C)CC(=O)C2=C(C1)Nc1ccccc1N(C(=O)C1CC1)C2c1cccs1 (configuration not stated)	-0.2	3.9
COc1cc(-c2noc(-c3c(-c4ccccc4Cl)noc3C)n2)cc(OC)c1OC	-0.65	-0.61
CN(CC(=O)N1CCc2ccccc21)S(=O)(=O)c1ccc(-c2ccc(=O)[nH]n2)s1	-0.45	1.8
COC(=O)c1ccc(NC(=O)CSc2nc3ccc(N4C(=O)c5cccc([N+](=O)[O-])c5C4=O)cc3s2)cc1	/	-0.63
CCC(=O)Nc1nc(-c2ccc3c(c2)OCCO3)cs1	-0.85	-1.1
CCSC1(SCC)N=C(N)C2(C#N)C(c3ccc(F)cc3)C12C#N (configuration not stated)	-0.05	19
O=C1COc2ccccc2CN1c1ccc(Cl)cc1	-0.85	-0.12
CC(C)C(NC(=O)Cc1c[nH]c2ccccc12)C(=O)NCCc1ccc(Oc2ccccc2)cc1 (configuration not stated)	/	9.1
O=C1N(CN2CCOCC2)c2ccccc2C12OCCCO2	/	0.43
CCNC(=O)c1ccccc1Sc1ccccc1COC(C)=O	0	0.3
CN(c1ccccc1)S(=O)(=O)c1ccc2c(c1)CCN2S(C)(=O)=O	-0.25	-0.04
CCC1(c2ccccc2)C(=O)NC(=O)NC1=O	/	0.085
CCOc1ccc(N2CC(O)(c3ccc(F)cc3)[N+]3=C2CCCC3)cc1 (configuration not stated)	/	0.06
CC(Oc1ccccc1)C(=O)NC1CCSc2ccccc21 (configuration not stated)	-1.4	/
CCc1ccc(CNC(=O)C2CCN(c3nc4ccccc4o3)CC2)cc1	0.4	0.2
N#CC(C(=O)CCN1C(=O)C2CC=CCC2C1=O)c1nc2ccccc2[nH]1 (configuration not stated)	0.15	/
Remaining list, next part
SMILES	AID504770	CapD inh
CCOc1ccc2c(c1)C(C)CC(C)(C)N2C(=O)Nc1ccc(Cl)cc1 (configuration not stated)	/	3.4
O=C(C1CC1)N1CCc2cc(Br)cc(S(=O)(=O)NC3CCCC3)c21	-0.15	0.33
CCN(CC)S(=O)(=O)c1ccc(=O)n(CC(=O)c2ccc[nH]2)c1	-1.2	/
CN(Cc1ccco1)C(=O)CNC(=O)c1ccc(Oc2ccccc2)cc1	-0.7	/
COC(=O)C(C#N)c1nc2ccccc2nc1N1CCN(c2ccc(F)cc2)CC1 (configuration not stated)	1.4	/
CCCNc1nc(=O)[nH]nc1C	0.3	0.27
CC(C)c1cccc(C(C)C)c1N1C(=O)C=CC1=O	0.75	-0.27
CCC(C(=O)NNC(=O)c1ccc(N(C)C)cc1)c1ccccc1 (configuration not stated)	/	-0.6
COc1cccc(C(=O)N/N=C/c2cc(Cl)ccc2[N+](=O)[O-])c1	/	-1.2
O=C1N/C(=C\c2ccc(O)cc2)C(=O)c2ccccc21	-0.35	-0.1
Nc1c(C(=O)Nc2ccc(Br)cc2)sc2nc3c(c(-c4ccco4)c12)CCC3	/	0.18
O=C(Nc1ccc(S(=O)(=O)Nc2cccc(C(F)(F)F)c2)cc1)c1ccco1	-0.4	/
COc1ccc(C2CC(=O)C=C(NCC(C)C)C2)cc1 (configuration not stated)	-0.55	0.24
Cc1ccc(-n2c(SCC(=O)NCCc3ccc(S(N)(=O)=O)cc3)nc3n[nH]c(C)c3c2=N)cc1C	/	0.04
CC1CCCN(C(=O)C2CC(=O)N(C3CCCCC3)C2)C1 (configuration not stated)	0.85	-1.1
Cn1c(=O)n(C)c2ccccc21	0.6	0.69
COc1cccc(NC(=O)c2sc3nc4c(c(-c5cccs5)c3c2N)CCC4)c1	/	-0.44
O=C1NC(=O)C([N+](=O)[O-])C(=O)N1	/	-1.7
O=C(Nc1ccc(F)cc1)Oc1ccccc1N1CCOCC1	-0.55	0.88
CC1CC(C)(C)NC(=S)N1CCC(=O)Nc1ccc(F)c(F)c1 (configuration not stated)	0.4	-0.62
CC(C)[C@H](NC(=O)COc1ccc(C#N)cc1)c1nc2ccccc2[nH]1	1.6	/
O=C(Nc1ccc(S(=O)(=O)C(F)F)cc1)c1cccnc1N1CCCC1	-0.65	/
COC(=O)CS(=O)(=O)c1ccc2c(c1)CC(=O)N2	-0.4	/
CC1CCc2c(sc(N)c2C(N)=O)C1 (configuration not stated)	-0.65	/
COc1ccc(CCNS(=O)(=O)c2cc(C)c(Cl)cc2Cl)cc1OC	/	0.62
Following part
SMILES	AID504770	CapD inh
Cc1ccc(S(=O)(=O)N(C/C=C/c2ccccc2)C(=O)N2CCN(C)CC2)cc1	0.65	/
O=C(NCc1ccccc1)c1cc(C(=O)C2CCCCC2)c[nH]1	0.7	-0.065
O=C(NN1S(=O)(=O)c2ccccc2S1(=O)=O)c1ccc(Br)cc1	-0.1	0.28
Cc1nc2sc(C(c3cccc(F)c3)N3CCC(O)CC3)c(O)n2n1 (configuration not stated)	-0.85	-0.68
CC1=CC(=C2C(=O)c3ccccc3C2=O)C=C(C)O1	-0.25	/
CC(=NCCCN1CCOCC1)c1c(C)[nH]n(-c2ccc(F)cc2)c1=O	0.05	/
COc1cc([C@H]2[C@H](C(=O)c3ccccc3)N3C=Cc4ccccc4[C@H]3C2(C#N)C#N)cc(OC)c1OC	/	2.7
O=c1oc(-c2cccs2)nn1CN1CCCC2CCCCC21 (configuration not stated)	-1.2	/
Cc1cc(NS(=O)(=O)c2ccc(N)cc2)no1	1.5	76&-0.11&-0.15
COc1ccc(C(=O)Nc2ccc(Oc3ncnc4cc(Cl)ccc34)nc2)cc1	-1.1	1.4
Cc1cc2nnc(-c3cccc4c3OCO4)n2c2ccccc12	1.7	6.6
O=S(=O)(NCC1CCCO1)c1ccc(-c2cc(C(F)(F)F)no2)s1 (configuration not stated)	-0.4	0.02
O=C(CCN1C(=O)c2ccccc2S1(=O)=O)Nc1ccccc1	3	/
O=C(Nc1ccccc1N1CCOCC1)C1(c2ccccc2)CC1	-0.1	/
CC(C)(C)c1ccc(NC(=O)C2CCCC2)cc1	-1.2	/
O=c1ccc(C2CCN(S(=O)(=O)c3ccc(F)cc3)CC2)nn1-c1ccccc1	0.05	2.8
CCS(=O)(=O)C1=NSC2=NC(=O)/C(=C\c3ccc(OCc4ccc(C)cc4)c(OC)c3)C(=N)N21	-0.55	0.48
O=S(=O)(NCC1COc2ccccc2O1)c1cc(Cl)sc1Cl (configuration not stated)	0.7	-0.76
Ic1ccc(Nc2nc3nonc3nc2N2CCCCCC2)cc1	/	-1
CC(O)/C=C/c1cccc[n+]1C (configuration not stated)	1.4	-0.8
CC1CC(C)CN(C(=O)CC2Oc3ccccc3NC2=O)C1 (configuration not stated)	1.6	1.5
CC(/C=C1\SC(=S)N(CCC(=O)N(CCO)Cc2ccccc2)C1=O)=C\c1ccccc1	/	-0.36
CON(C)C(=O)CC(C)(C)n1cccc1	/	-0.6
N#CC(C#N)=C/C(C#N)=C(\N)N1CCN(c2ccc(Cl)c(Cl)c2)CC1	/	0.77
O=C(O)c1ccccc1Sc1ccccc1S(=O)(=O)NC1CCCCC1	-0.8	0.49
Carrying on:
SMILES	AID504770	CapD inh
CN1CCNC(c2ccccc2)C1 (configuration not stated)	-0.4	/
CCC(=O)C12CC3CC(CC(C3)C1)C2	-0.45	0.42
O=C(CCc1nnc2ccc(N3CCCC3)nn12)Nc1cccnc1	-0.15	0.46
COc1ccc(C2=NN(C(=O)CSc3nnc(CNC(=O)COc4ccccc4)n3C)C(c3ccc(F)cc3)C2)cc1 (configuration not stated)	/	0.66
COc1cc(-c2nc(-c3ccc(NC(=O)c4cccc(Cl)c4)cc3)no2)cc(OC)c1OC	/	0.56
CN1CCN(C2CC3(C)C(CCC4C3CCC3(C)C(O)C(N5CCN(C)CC5)CC43)CC2O)CC1 (configuration not stated)	0.1	/
CN1CCN(C2=Nc3c(Cl)cc(Cl)c4cccc2c34)CC1	-1.1	/
C=CCNC(=O)c1c(O)nc2ccccn2c1=O	-0.15	103
C/C(=N\N1C(=O)CC(=O)NC1=S)c1ccc(Cl)cc1	-1	-1.4
CC1CC(Nc2ccccc2)c2ccccc2N1 (configuration not stated)	0.15	-0.19
Cc1cccc(C)c1Nc1nc2ccccc2o1	-0.95	-0.17
CCCCCCC1CC(=O)NC(=O)N1 (configuration not stated)	0.15	-0.66
CC1SCC(=NO)CS1 (configuration not stated)	/	0.75
Cc1c(C(=O)NCCCN2CCOCC2)sc2ncnc(N3CCN(c4ccccc4F)CC3)c12	/	-0.52
Cc1cc(C)c(S(=O)(=O)NCC23C=CC(O2)C2C(=O)N(c4ccc(Cl)cc4)C(=O)C23)c(C)c1 (configuration not stated)	1.5	0.57
CN(C)S(=O)(=O)c1ccc2c(c1)CCN2	/	0.78
CCOC(=O)c1cnc2c(Cl)c(Cl)ccc2c1N(C)Cc1ccccc1	0.05	-0.32

High-throughput results: PubChem BioAssay, ICCB-Longwood Screening Facility, Harvard Medical School
